Bioassay records from PubChem.
Mtb betalactam: beta-lactam sensitization of Mtb H37Rv; 330,000 tested, 0.27% active; M. tuberculosis H37Rv growth with meropenem, percent inhibition; hits of this screen are not shown here; inhibition, % at 25 µM;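 active = about 74% or more and at least 40 points above the plate without the antibiotic, then above 30% in a dose series; inconclusive = first-round hits that could not be retested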;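 also: growth measured after seven days incubation then overnight dye step; 0% = bacteria only wells and 100% = bacteria with antibiotic; twin plates without the antibiotic show which effects depend on it; some results filed as inactive read as strong as hits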
RecA intein inh: blocks M. tuberculosis RecA intein splicing | P9WHJ3 | cell-free RecA intein splicing, fluorescence | inhibition, %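 (about 9 µM by stock and volumes)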 | 290,000 tested, 0.75% active | AID 2221; in the data active = inhibition above about 30%; inconclusive = no clear call, values can overlap the other calls;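 also: 0% = vehicle wells and 100% = reference inhibitor control wells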
Target sequence (P9WHJ3 whole entry, looked up): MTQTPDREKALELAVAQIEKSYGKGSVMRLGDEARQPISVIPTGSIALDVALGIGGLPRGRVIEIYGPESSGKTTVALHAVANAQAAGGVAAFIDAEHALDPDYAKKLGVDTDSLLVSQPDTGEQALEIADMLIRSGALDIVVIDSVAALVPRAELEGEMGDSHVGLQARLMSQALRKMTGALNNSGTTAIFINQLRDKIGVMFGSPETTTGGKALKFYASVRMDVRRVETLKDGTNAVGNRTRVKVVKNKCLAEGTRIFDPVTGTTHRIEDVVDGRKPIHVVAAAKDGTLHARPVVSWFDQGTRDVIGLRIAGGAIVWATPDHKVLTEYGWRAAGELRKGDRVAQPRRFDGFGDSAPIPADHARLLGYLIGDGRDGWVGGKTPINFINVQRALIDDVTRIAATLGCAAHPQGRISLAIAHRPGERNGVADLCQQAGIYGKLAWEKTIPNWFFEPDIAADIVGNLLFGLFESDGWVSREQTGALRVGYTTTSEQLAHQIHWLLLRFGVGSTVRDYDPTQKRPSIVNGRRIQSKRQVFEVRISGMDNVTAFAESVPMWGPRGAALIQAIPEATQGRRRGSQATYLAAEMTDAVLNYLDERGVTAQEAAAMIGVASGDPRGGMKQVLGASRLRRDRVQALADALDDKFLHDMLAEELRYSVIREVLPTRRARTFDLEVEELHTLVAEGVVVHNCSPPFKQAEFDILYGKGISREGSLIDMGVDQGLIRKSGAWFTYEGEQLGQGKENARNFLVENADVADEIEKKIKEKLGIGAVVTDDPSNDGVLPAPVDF
Arbovirus inh: arbovirus infection inhibition | arbovirus infection cell-based antiviral screen | inhibition, % at 10 µM | 200,000 tested, 0.37% active;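 active = inhibition from about 30%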;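 also: bluetongue infection of BSR cells; cell survival read as ATP light after 72 h; 0% = infected wells without compound and 100% = uninfected wells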
YopH inh: inhibitors of Yersinia enterocolitica YopH tyrosine phosphatase; AID 898; fluorescence Ex485/Em525; inhibition, %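 (about 10 µM by stock and volumes)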; 140,000 tested, 0.16% active;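 active = inhibition of 50% or more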;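 also: controls were vehicle for no effect and minimum signal wells for full effect; inactives centre near -20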
Mtb growth: M. tuberculosis H37Rv growth inhibitors, H37Rv strain (AID 1626). M. tuberculosis H37Rv growth inhibition; higher % means a stronger effect. one-dose inhibition, % at 10 µM; IC50 in µM for titrated hits. 220,000 tested, 0.95% active;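 active = confirmed in a dose series; inconclusive = inhibition above 80% but not taken into the dose series; inactive = below 80% or under 30% at every dose of the series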;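 also: bacteria incubated seven days before Alamar blue readout; 0% = bacteria only wells and 100% = bacteria with antibiotic wells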
Arbovirus inh repeat: second read-out of Arbovirus inh, no call of its own (marks repeat the call); inhibition, %; measured here: 10K subset replicate screen; many hits read low in the repeat;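 first of two repeat runs on a subset; 0% = infected and 100% = uninfected wells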
An asterisk follows results filed as active; u = inconclusive; x = not tested or not shown.

SMILES	Mtb betalactam	RecA intein inh	Arbovirus inh	YopH inh	Mtb growth	others
COc1cc(C2C3=C(Nc4ncnn42)c2ccccc2CC3)cc(OC)c1OC (stereo not given)	-2	10	-11	-49	-2%
CCN(CC)c1ccc(/C=N/NC(=O)c2ccc3nc[nH]c3c2)cc1	4	-4.4	x	x	-3%
Cc1ccccc1-c1nnn(CC(=O)Nc2ccc3c(c2)OCCO3)n1	-4	2.2	-3	x	1%
CC(NC(=O)c1ccccc1)C(c1cccs1)N1CCOCC1 (stereo not given)	6	-2.6	11	-43	24%
S=C(NCCSCc1ccc(Cl)cc1Cl)Nc1ccccc1	86	11	-30	-32	79%
CCOc1ccc2ccccc2c1/C=N/NC(=O)CNC(=O)Cc1ccccc1	4	-1.1	-7	-13	3%
COc1ccc(N(CC(=O)NC2CCCCC2)C(=O)CNC(=O)c2cccs2)cc1OC	-5	18	x	x	x
COc1ccccc1C(=O)COC(=O)CSC(C)C(=O)Nc1cc(C)on1 (stereo not given)	2	-1.6	x	x	x
Cn1c(Cc2cccs2)nnc1SCC(=O)Nc1ccccc1	-8	-2.9	x	x	x
CN(C)S(=O)(=O)c1ccc(NC(=S)NC(=O)C2CCC2)cc1	-22	2.2	x	x	x
O=c1c(Cl)c(N2CCN(S(=O)(=O)c3ccc(F)cc3)CC2)cnn1-c1cccc(Cl)c1	4	0.7	1	-21	16%
Cc1ccccc1C(=O)Nc1ccccc1C(=O)N/N=C\c1ccco1	3	2.9	-7	-3	-2%
O=C(CSc1nc2cccnc2n1Cc1ccccc1)NC1CCCCC1	-1	3.4	-7	-16	9%
Clc1cccc(CSc2nnc(-c3sccc3-n3cccc3)o2)c1	1	5.4	9	7	6%
COC(=O)C1=C(C)N=C2SCCC(=O)N2C1c1ccc(C(=O)OC)cc1 (stereo not given)	u	0.6	3	12	7%
Cc1ccc(CNc2cc(-c3nn4c(C)nnc4s3)ccc2C)s1	8	-4.6	-9	10	15%
Cc1nc2nc[nH]n2c(=O)c1NS(=O)(=O)c1ccc(F)cc1	2	3.0	11	x	-5%
Fc1ccccc1/C=N/Nc1nc(-c2ccccn2)nc2ccccc12	99	-3.9	x	x	u
O=C(NCC1OCCc2ccccc21)c1ccc(NC(=O)c2ccc(Cl)cc2)cc1 (stereo not given)	8	1.5	-6	-32	7%
Cc1ccc(CNC(=O)CS(=O)(=O)Cc2nc(-c3ccc(C)cc3)oc2C)cc1	6	-1.0	x	x	x
COc1cccc(OCc2cc(C(=O)N3CCN(C(C)=O)CC3)no2)c1	-1	-6.4	x	x	x
COc1ccccc1CCC(=O)Nc1ccc2c(c1)CN(Cc1ccc(CO)o1)CC2	-3	0.8	x	x	x
COc1ccc(N2C(=O)C(C)C(Cc3ccc(C)cc3)C2=O)cc1 (stereo not given)	3	-2.3	x	x	x
Cn1c(SCC(=O)Nc2ccc(F)cc2)nnc1-c1cccnc1	3	2.3	8	-17	-9%	Arbovirus inh repeat=1
COC(=O)c1c(C)[nH]c(C(=O)COC(=O)Cc2ccc3c(c2)OCCO3)c1C	-15	-0.6	2	-22	-1%

Continued; the last 2 above are carried over.
SMILES	Mtb betalactam	RecA intein inh	Arbovirus inh	YopH inh	Mtb growth	others
Cn1c(SCC(=O)Nc2ccc(F)cc2)nnc1-c1cccnc1	3	2.3	8	-17	-9%	Arbovirus inh repeat=1
COC(=O)c1c(C)[nH]c(C(=O)COC(=O)Cc2ccc3c(c2)OCCO3)c1C	-15	-0.6	2	-22	-1%
CCOC(=O)N1CCN(C(=O)c2cn(C)c3ccc(S(=O)(=O)N4CCC(C)CC4)cc3c2=O)CC1	-10	x	14	x	-8%
C[n+]1c2n(c3ccccc31)N=C(c1ccc(Br)cc1)CS2	-19	0.7	2	-23	-9%
S=C(c1ccccc1)N1CCCC1	5	0.7	x	x	x
COc1ccc2c(c1OC)C(=O)OC2Nc1nc(-c2ccc(-c3ccccc3)cc2)cs1 (stereo not given)	0	1.9	4	-17	2%
COc1cc(OC)c(NC(=O)CCc2ccccc2)cc1Cl	8	-1.6	-7	-58	0%
Cn1c(CNc2ccccn2)c(C#N)c2ccccc21	5	-2.4	-9	-23	-2%
COc1ccc(C2C(C(N)=O)=C(C)Nc3nc(-c4ccccc4Cl)nn32)c(OC)c1 (stereo not given)	-3	-1.0	6	-33	-10%	Arbovirus inh repeat=3
CC(/C=C/c1ccccc1)=N/NC(=O)c1cc([N+](=O)[O-])cc([N+](=O)[O-])c1	61	x	-21	-31	u
Cc1nnc(SCC(=O)NNC(=O)c2ccco2)n1-c1ccccc1	-12	-2.1	4	x	8%
O=C(CCc1nnc(CCC2CCCCC2)o1)NCCc1ccccn1	-8	0.1	5	x	-1%
Cc1ccc(CC(=O)NCC2CCCCC2)cc1	-3	0.0	x	x	x
CCc1ccc2c(c1)CCCN2C(=O)c1ccccc1C(=O)O	-5	-8.0	-1	-2	5%
CC(C)(C)C(=O)NC1CCSC1=O (stereo not given)	-3	0.2	11	x	-3%
O=C(Nc1nnc(CCc2ccccc2)s1)c1ccc(F)cc1	9	1.3	x	x	x
O=[N+]([O-])c1ccc(C(O)CN2CCN(c3ccccc3)CC2)cc1 (stereo not given)	-7	0.2	x	x	x
CCn1c(Cc2ccc(OC)cc2)nnc1SCC(=O)NC1CC1	-1	1.0	x	x	x
COc1ccccc1N/C=C/C(=C(C#N)C#N)N(C)C	17	x	2	x	5%
COc1cc(NC(=O)C2C3C=CC(C3)C2C(=O)O)ccc1NC(=O)c1ccccc1 (stereo not given)	-4	-1.7	x	x	x
O=C(NCCN1CCOCC1)c1ccccc1[N+](=O)[O-]	-3	-1.2	5	-4	2%
O=C(CN1CCN(Cc2ccccc2)CC1)NC(c1ccccc1)c1ccccc1	1	-1.2	x	x	6%
Cc1cc(C(=O)CN2CCCCC2)c(C)n1-c1ccc(F)cc1	-6	-0.3	-4	-34	-10%
O=S(=O)(Nc1ccc(F)cc1Cl)c1ccc(-c2cnc(C3CC3)o2)cc1	-13	7.5	x	x	x
O=C(Nc1ccsc1C(=O)O)c1ccccc1	-7	-0.7	x	x	x
Cc1ccc(C(=O)N2C3C=CC(C3)C2(C(F)(F)F)C(F)(F)F)cc1 (stereo not given)	-4	-3.0	16	4	-5%
N#Cc1c2n(c(=S)n(-c3ccccc3)c1=O)CCCCC2	-1	-2.6	10	x	-8%
Following part
SMILES	Mtb betalactam	RecA intein inh	Arbovirus inh	YopH inh	Mtb growth	others
CCOc1ccc(CCNC(=O)COC(=O)c2cc(OC)c(OC)cc2[N+](=O)[O-])cc1OCC	-1	1.7	x	x	x
Cc1cc(C)nc(SCC(=O)Nc2ccc(S(=O)(=O)Nc3cc(C)on3)cc2)n1	-8	3.8	x	x	x
O=C(COc1ncnc2cc(Cl)ccc12)c1ccc2c(c1)OCCO2	-2	-2.2	x	x	-4%
COC(=O)c1cn(Cc2c(C)cc(C)cc2C)nn1	-6	0.2	6	-10	-3%
COc1ccc2o/c(=N\O)c(C(=O)Nc3ccc(C)cc3)cc2c1	x	-1.0	-26	x	10%
COc1ccc(C(=O)NCc2cn3c(C)csc3n2)cc1OC	11	-0.9	1	-31	-2%
COc1ccc(-c2csc(C)n2)cc1	-1	0.2	-1	-16	-4%
CC1=C(C(=O)OC(C)C)C(c2c(O)ccc3ccccc23)NC(=O)N1 (stereo not given)	-3	-1.0	4	-27	4%	Arbovirus inh repeat=6
COc1cccc(-c2nnc(SCN3C(=O)c4ccccc4C3=O)n2C)c1	5	-2.6	4	-28	-9%
COc1ccc(NC(=O)c2nn(C)c(=O)c3ccccc23)cc1S(=O)(=O)Nc1ccccc1Cl	-2	4.9	-24	x	-2%
O=C(CCN1C(=O)c2ccccc2S1(=O)=O)N1CCN(c2ccccc2)CC1	-1	1.2	4	-46	-3%
CCOC(=O)N1CCC(NC(=O)c2ccc3c(c2)sc2nc(-c4ccc(OC)cc4)cn23)CC1	5	1.5	-7	-42	x
O=C(O)C1C2C=CC(C2)C1C(=O)Nc1ccc(C(=O)N2CCCCC2)c(Cl)c1 (stereo not given)	-5	-2.3	6	-27	4%
CCc1nonc1NC(=O)c1oc2c(C)c(C)ccc2c1C	3	0.1	x	x	x
COc1ccc(C(=O)NC2CCCc3ccccc32)cc1OC1CCN(C(C)=O)CC1 (stereo not given)	-9	-0.5	x	x	x
NS(=O)(=O)c1ccc(CCNC(=O)CSc2nnc3ccccn23)cc1	-2	-0.7	6	x	-5%
CCCCCC(=O)Nc1cc(S(=O)(=O)N2CCOCC2)ccc1N1CCCCC1	-4	0.6	x	x	x
CCOC(=O)Cn1nc(C)c(NC(=O)c2ccc(Cl)c([N+](=O)[O-])c2)c1C	-4	-1.8	5	x	-3%
COc1cc(CN2CCN(Cc3cn(C)c4ccccc34)CC2CCO)cc(OC)c1 (stereo not given)	-3	0.0	x	x	x
Cc1ccc(C(=O)NC(=S)NNC(=O)c2cccc([N+](=O)[O-])c2)cc1	66	11	x	x	x
Cc1ccc(-c2csc3ncn(CC(=O)N4CCOCC4)c(=O)c23)cc1C	-1	-0.9	4	-1	-2%
Cc1ccc(OCCNC(=O)/C=C/c2ccco2)cc1C	3	11	3	x	1%
N#Cc1cccn1-c1nccc(-c2cccs2)n1	13	-0.8	-16	x	11%
O=C(c1ccc(-c2cc3ccccc3oc2=O)cc1)N1CCN(c2ccc(Cl)cc2[N+](=O)[O-])CC1	6	0.2	-8	-20	15%
C=CCn1c(C)cc(C(=O)COc2ncnc3sccc23)c1C	3	-0.6	4	-2	2%
Other entries follow:
SMILES	Mtb betalactam	RecA intein inh	Arbovirus inh	YopH inh	Mtb growth	others
Cc1oc2c(O)c(O)ccc2c(=O)c1-c1cnn(-c2ccccc2)c1	-20	-1.2	1	-60	-1%
CC1=NN(C(N)=S)C(=O)C1N=Nc1ccc(C)cc1C (stereo not given)	98	3.4	-9	1	x
O=C(O)CCCNc1ccc([N+](=O)[O-])c(NCCCC(=O)O)n1	2	11	1	x	2%
CC(C)CC(C(=O)OCC(=O)Nc1cccc(Cl)c1)N1C(=O)C2CC=CCC2C1=O (stereo not given)	-1	3.9	-5	-5	1%
Cn1cc(S(=O)(=O)CC(=O)Nc2ccc(Br)cc2)c2ccccc21	0	1.3	-6	-23	6%
Cc1cccc(Cc2nnc(CCC(=O)N3CCCCC3c3nccs3)o2)c1 (stereo not given)	0	x	2	x	6%
Cc1cc(=O)[nH]c(NN=C2CCC(C(C)(C)C)CC2)n1 (stereo not given)	4	-4.1	0	x	4%
Cc1sc2ncnc(N[C@@H](Cc3ccccc3)C(=O)O)c2c1C	-5	0.5	x	x	x
CCCN(CC(=O)Nc1ccc(F)c(F)c1F)C(=O)c1ccc(=O)n(Cc2ccccc2)n1	-2	1.1	x	x	x
Cc1cc(S(=O)(=O)Nc2ccc(N3CCOCC3)cc2)ccc1Br	4	0.5	x	x	x
Cc1oc2c(CN3CCCCC3C)c(O)ccc2c(=O)c1-c1ccccc1 (stereo not given)	2	-2.8	x	x	x
Cc1ccccc1C(=O)Nc1cc(-c2cc(C(C)(C)C)oc2C)nn1C	12	x	x	x	15%
CCOC(=O)C1CCCN(C(=O)c2cc3ccccc3oc2=O)C1 (stereo not given)	-12	-0.6	4	x	4%
Oc1ccc(-c2cn3ccccc3n2)cc1	-1	-1.1	x	x	-10%
Cc1ccccc1CS(=O)(=O)Cc1ccc(C(=O)NCCc2ccccc2)o1	-2	2.2	x	x	x
Cc1nn(Cc2c(F)c(F)c(F)c(F)c2F)c(C)c1NC(=O)c1ccc(COc2ccccc2Cl)cc1	x	-0.4	1	0	-3%
CC1(C)[C@@H](O)CC[C@]2(C)[C@H]3C(=O)C=C4[C@@H]5C[C@@](C)(C(=O)O)CC[C@]5(C)CC[C@@]4(C)[C@]3(C)CC[C@@H]12	0	-0.2	-19	-8	10%
O=C(Nc1ccc(-c2csc(-c3ccccc3)n2)cc1)c1ccccc1	2	x	0	-9	-1%
N#CC1=C(N)NC(SCC(=O)O)=C(C#N)C12CCCC2	18	0.8	1	-7	-1%
O=C(CNC(=O)c1ccc(S(=O)(=O)N2CCCCC2)cc1)N/N=C/c1ccco1	3	4.1	0	x	1%

Molecules from the list above that have a cyano group:
SMILES	Mtb betalactam	RecA intein inh	Arbovirus inh	YopH inh	Mtb growth	others
Cn1c(CNc2ccccn2)c(C#N)c2ccccc21	5	-2.4	-9	-23	-2%
COc1ccccc1N/C=C/C(=C(C#N)C#N)N(C)C	17	x	2	x	5%
N#Cc1c2n(c(=S)n(-c3ccccc3)c1=O)CCCCC2	-1	-2.6	10	x	-8%
N#Cc1cccn1-c1nccc(-c2cccs2)n1	13	-0.8	-16	x	11%
N#CC1=C(N)NC(SCC(=O)O)=C(C#N)C12CCCC2	18	0.8	1	-7	-1%

Not all compounds are listed; the hit share may differ from the screen's.
